Ecoli growth = E. coli growth inhibition, primary screen, OD600. Escherichia coli growth, 23 h; hits give low values. OD600 absorbance (concentration not given with the values). 0.21% of 330,000 active. AID 1053175, 2014;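 active means OD600 absorbance below the run mean of sample wells minus 3.6 SD, in any replicate, cut at about 0.56 in these data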;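 further: stock transfer was 300 nL into about 60 µL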
UCH37 DUB inh = inhibitors of human UCH37 deubiquitinase, primary screen, biochemical, Ub-AMC cleavage, fluorescence. Ubiquitin carboxyl-terminal hydrolase isozyme L5 (Homo sapiens), Q9Y5K5. purified proteasome/UCH37. inhibition, % (concentration not given with the values). 0.33% of 330,000 active. AID 588478, 2011;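 active means mean of two replicates above 20%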;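 further: 0% = compound-free wells with enzyme and 100% = wells lacking proteasome; stock transfer was 100 nL into about 20 µL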
Target sequence (Q9Y5K5 whole entry, looked up): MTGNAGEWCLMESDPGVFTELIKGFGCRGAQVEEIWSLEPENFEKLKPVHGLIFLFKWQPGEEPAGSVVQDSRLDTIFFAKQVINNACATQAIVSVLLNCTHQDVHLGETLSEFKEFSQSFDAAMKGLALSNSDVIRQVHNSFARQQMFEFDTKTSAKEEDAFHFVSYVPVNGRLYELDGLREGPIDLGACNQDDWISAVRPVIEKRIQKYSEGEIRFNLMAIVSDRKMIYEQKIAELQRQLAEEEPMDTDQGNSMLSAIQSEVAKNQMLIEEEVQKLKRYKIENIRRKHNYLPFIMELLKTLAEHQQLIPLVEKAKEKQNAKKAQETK
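Test system – human UCH37 enzyme supplied as purified proteasome complex · Incubation – 30 min preincubation with enzyme, 25 min cleavage at room temperature · Detection – AMC fluorescence from Ub-AMC cleavage, excitation 355 nm, emission 460 nm · Benchmarks – no-proteasome wells (full inhibition) and compound-free wells (no inhibition)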
HNF4A DNA FP = change in binding of human HNF4A to DNA, primary screen, biochemical, fluorescence polarization, FITC-DNA; Hepatocyte nuclear factor 4-alpha (Homo sapiens), P41235; 1 h; activity change, % at 10 µM; 0.3% of 360,000 active; AID 1224865, 2016; in the data active means activity change above about 30%, passing the limit was not always enough;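 further: controls were the assay level and a saturating level of protein; the project sought stronger binding though the title names inhibitors; some compounds called inactive have numbers as strong as hits; positive values seem to mean higher polarization but the record does not say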
Target sequence (P41235 whole entry, looked up): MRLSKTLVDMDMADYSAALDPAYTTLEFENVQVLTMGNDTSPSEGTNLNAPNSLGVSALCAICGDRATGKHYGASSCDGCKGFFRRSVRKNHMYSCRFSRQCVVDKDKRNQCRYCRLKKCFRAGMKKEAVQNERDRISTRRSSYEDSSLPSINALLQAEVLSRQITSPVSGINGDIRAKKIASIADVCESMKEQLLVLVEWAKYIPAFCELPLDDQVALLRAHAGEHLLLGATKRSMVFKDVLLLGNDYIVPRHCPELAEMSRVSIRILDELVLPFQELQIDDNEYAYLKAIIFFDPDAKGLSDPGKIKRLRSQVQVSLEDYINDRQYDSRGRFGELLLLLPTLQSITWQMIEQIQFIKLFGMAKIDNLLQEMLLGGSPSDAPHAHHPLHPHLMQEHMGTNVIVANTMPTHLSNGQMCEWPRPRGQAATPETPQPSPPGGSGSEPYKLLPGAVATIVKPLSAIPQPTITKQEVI
RanGTP-Impb inh = inhibitors of RanGTP-importin-beta interaction, primary screen, biochemical, FRET, CFP-Ran, YFP-importin-beta, homogeneous; Ran GTPase (GTP-bound) - importin-beta complex; cell-free CFP-Ran/YFP-importin-beta FRET ratio; inhibition, % (no concentration beside the values); 1.1% of 300,000 active; AID 2216, 2009;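 active means most replicates above 15%; inconclusive means exactly half above 15%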;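 further: 0% = DMSO wells and 100% = Ran loaded with GDP instead of GTP; wells of about 40 µL received 100 nL stock; the first replicate is given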
FGF22 binding = binders of human FGF22 protein, primary screen, FGF22 synaptogenesis inhibitor project, biophysical, thermal shift, single point; Fibroblast growth factor 22 (Homo sapiens), Q9HCT0; recombinant FGF22 thermal shift, SYPRO orange fluorescence; percent of sucrose octasulfate shift, DMSO zero; calls only at 9.99 µM; 1.5% of 340,000 active; AID 651658, 2012;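 active means melting point raised past a set limit in the mean and every replicate; inconclusive means no clear call; three in four hits are not shown here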
Target sequence (Q9HCT0 whole entry, looked up): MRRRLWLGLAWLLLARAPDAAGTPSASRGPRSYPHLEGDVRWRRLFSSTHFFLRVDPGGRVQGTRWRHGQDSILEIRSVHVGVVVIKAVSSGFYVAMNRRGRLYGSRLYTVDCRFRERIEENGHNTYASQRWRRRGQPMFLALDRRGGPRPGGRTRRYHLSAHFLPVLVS
Vif TR-FRET = inhibitors of Vif binding to APOBEC3G peptide, primary screen, biochemical, TR-FRET, GST-Vif 1-94, biotin-A3G peptide, dose response retest (AID 1117319) | Virion infectivity factor (Human immunodeficiency virus type 1 group M subtype B (isolate … | TR-FRET GST-Vif / biotin-A3G peptide binding; higher % means a stronger effect; test concentration not given here; strong numbers were not always called active | one-dose inhibition, %; IC50 in µM for titrated hits | 0.57% of 260,000 active;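 active means above the screen mean plus three standard deviations and confirmed in dose response; inconclusive means results disagree or hit not tested in dose response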;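 further: Vif residues 1-94 fused to GST binding biotinylated APOBEC3G peptide 110-148; 0% = full assay without inhibitor and 100% = GST in place of GST-Vif; retest series ran down from 100 µM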
MLL AF4-AF9 inh = inhibitors of AF4 peptide binding to AF9, primary screen, biochemical, AlphaScreen, biotin-AF4 peptide, FLAG-AF9, single point; inhibition, % at 10 µM; AID 651704, 2012; 0.47% of 350,000 active;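 active means every replicate reaching a set inhibition limit, whatever the replicate mean, cut at about 25% in these data; inconclusive means mean inhibition reaches that limit but some replicates miss it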;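 further: 0% = plate neutral control median and 100% = total signal loss; the record names both 10 and 1 µM as test concentration; the first replicate is given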
* = called active by the depositor; i = inactive; ? = inconclusive; / = no result given. Some of the compounds tested. The share of hits here may be higher or lower than overall.

SMILES	Ecoli growth	UCH37 DUB inh	HNF4A DNA FP	RanGTP-Impb inh	FGF22 binding	Vif TR-FRET	MLL AF4-AF9 inh
O=S(=O)(c1ccc(NC(=S)NCc2cccnc2)cc1)N1CCCCC1	0.63	2.4	-3.3	0.5	i	/	-3.2
O=C(c1ccc(Br)o1)N1CCC(Cc2ccccc2)CC1	0.7	4.1	4.9	/	i	/	2.6
CC(C)n1c(=O)c2ccccc2n1S(C)(=O)=O	/	/	1.3	/	i	/	-3.6
CC(=O)c1ccc([C@@H]2C[C@]34CN(Cc5cccc(C(F)(F)F)c5)S(=O)(=O)[C@H]3C[C@H]2O4)cc1	/	-0.9	3.5	-4.9	/	/	/
CCC(CC)C(=O)Nc1nnc(SCC(=O)NC2CC2)s1	0.63	0.4	-3.0	4.7	i	/	4.2
CCOC(=O)/C=C(\C)Nc1cc(C)nn1-c1ccccc1	/	/	2.4	-2.8	/	27%	/
COc1ccnc(Oc2cc(Cl)cc(Cl)c2)c1C#N	0.74	2.2	-0.6	3.9	i	0%	?
O=C(CN1C(=O)NC2(CCCC2)C1=O)OCCOc1ccc(F)cc1	0.69	1.1	-0.6	-1.1	i	2%	-0.3
CN(c1ccccc1)S(=O)(=O)c1cccc2ccccc12	0.66	1.6	-0.5	1.9	i	/	-3.3
O=C(O)C1CCN(S(=O)(=O)c2cccc3nsnc23)CC1	0.68	3.0	0.7	4.8	i	/	-4.1
CC(C)NC(=O)C(=O)c1cn(C)c2ccccc12	0.71	2.0	-1.2	-1.6	i	1%	-3.4
CC[C@@H](C)[C@H](NS(=O)(=O)c1ccc(C)cc1)C(=O)N1CCC(C(=O)NCC(=O)O)CC1	0.73	0.7	1.4	-3.3	/	32%	/
CC[C@]12C(=O)N(C)C[C@H]([C@@H]3C(=O)N(Cc4ccccc4)C(=O)[C@@H]31)N2C(=O)c1ccc(F)cc1	/	0.6	-6.2	/	i	/	-1.5
O=C(NC1CCCC1)C1CCN(C(=O)NCc2ccccc2)CC1	0.72	0.9	-0.1	-1.4	i	-6%	-1.9
COC(CSc1nc(N)c2c3c(sc2n1)CN(C)CC3)OC	/	/	-1.0	6.9	i	0%	0.9
O=C(COC(=O)CC1CC2CCC1C2)Nc1cccc(S(=O)(=O)NC2=NCCCCC2)c1 (centres undefined)	0.7	4.3	-0.8	-1.2	i	-2%	1.1
O=C(N/N=C/c1ccco1)c1cc2ccccc2o1	/	/	3.2	1.4	i	/	-0.5
Cc1ccc(C(=O)NN(CCC(=O)NC(C)(C)C)C2=NS(=O)(=O)c3ccccc32)cc1	0.66	2.7	1.5	3.7	/	/	/
CC(=O)N1CCC(=NNc2ccnc3cc(Cl)ccc23)CC1	0.68	2.8	-0.2	1.0	i	/	4.3
Cc1ccc2nsnc2c1S(=O)(=O)NC1CC1	0.68	0.0	-2.6	?	/	2%	/
CCNc1nc(NCC)n2c(SCC(=O)Nc3ccc(OC)c(OC)c3)nnc2n1	0.67	1.3	0.6	0.9	i	5%	-21
COc1ccc2nc(NC(=O)CCc3nc(-c4ccccc4F)no3)sc2c1	0.74	-1.6	-2.1	0.3	/	22%	/
COCc1nnc(NC(=O)c2ccc(NC(=O)C(C)C)cc2)s1	0.66	4.2	1.4	2.5	/	-6%	/
Cc1cc(C(=O)O)c(S(C)(=O)=O)s1	0.72	4.2	-0.3	-2.8	/	-2%	/
Cc1ccc(S(=O)(=O)N(C)C)cc1NC(=O)c1ccccc1SCC(=O)N1CCCC1	0.66	4.7	1.3	/	i	-12%	7.2
COC(=O)C(CCSC)NC(=O)Cn1ncc2c(=O)oc3ccc(C)cc3c21 (centres undefined)	0.77	1.8	6.3	-1.0	i	?	-4.8
CCC(C(=O)OC)n1cnc2c(oc3ccccc32)c1=O (centres undefined)	0.72	1.0	5.7	-0.8	i	3%	-4.6
CN(C)c1ccc(C(=O)OCC(=O)N2CCCCCC2)cc1	0.69	4.1	3.7	0.6	i	-3%	0.9
Cc1cccc(C)c1NC(=O)C1(C)CCC(=O)N1CCc1c[nH]c2ccccc12 (centres undefined)	/	/	-3.7	/	i	/	-0.1
CC(=O)NC(c1ccccc1)c1nc(-c2cncnc2)cs1 (centres undefined)	/	/	1.3	/	i	/	-2.9
CC(=O)c1c(C)[nH]c(C(=O)N2CCN(c3cc(Cl)ccc3C)CC2)c1C	0.7	1.1	-1.7	2.8	/	12%	/
CO[C@@H]1[C@@H](OC(N)=O)[C@@H](O)C(Oc2ccc3c(O)c(NC(=O)c4ccc(O)c(CC=C(C)C)c4)c(=O)oc3c2C)OC1(C)C (some centres undefined)	/	6.3	0.9	/	i	/	-17
COc1ccc(-c2c(C#N)c(N)nc3sc(C(=O)c4ccccc4)c(N)c23)cc1	0.7	-13	11	-71	/	/	/
O=C(CSc1nnc(-c2ccccn2)n1-c1ccccc1)Nc1ccc2c(c1)OCO2	0.7	0.9	-0.7	-0.6	/	-3%	/
CC1CCN(C(=O)c2[nH]cnc2C(=O)N2CCN(c3ccccc3)CC2)CC1	0.67	3.0	-0.1	/	i	/	-1.2
CCn1c(CNc2ccc(OC)cc2)nnc1SCC(=O)Nc1ccc(F)cc1	0.66	-1.1	-1.6	4.1	/	8%	/
O=C1/C(=C\c2ccc3c(c2)OCO3)CCC/C1=C/c1ccc2c(c1)OCO2	0.75	-1.0	10	1.7	/	1%	/
COc1ccc(CCN=C(C)c2cc(C)c(C)cc2O)cc1OC	0.66	1.6	0.2	-1.7	i	/	0.1
CC(C)C(CC(=O)N1CCCCC1)C1CCOC(C)(C)C1 (centres undefined)	0.72	0.0	-1.8	-1.4	/	?	/
CC(C)(C)n1cnc(C(N)=O)c1N	0.73	2.0	-4.8	-13	/	-3%	-3.1
O=C(CNC(=O)c1ccccc1)NCC(=O)OCC(=O)c1ccccc1Cl	0.66	0.9	-1.7	5.8	i	/	-0.1
CCOc1ccc(NC(=O)C2CC(=O)N=C(N)S2)cc1 (centres undefined)	0.7	2.1	1.6	-0.2	/	-10%	/
O=C(COC(=O)c1n[nH]c2ccccc12)Nc1ccc(S(=O)(=O)N2CCCC2)cc1	0.72	-1.3	0.4	/	/	-1%	/
COc1ccc(C(=O)N2CCN(c3ccccc3)CC2)cc1S(=O)(=O)N1CCOCC1	0.65	2.2	2.4	0.6	i	/	2.2
O=C1CCc2cc(S(=O)(=O)Nc3ccccc3Cl)ccc2N1	0.73	3.3	-0.7	/	i	/	0.7
COC(=O)C1=C(C)N(CCc2ccccc2)C(=O)/C1=C\c1ccco1	0.69	4.4	-1.4	-1.1	/	?	/
CCN1CCN(CCCN(Cc2ccco2)C(=S)Nc2cccc(Cl)c2C)CC1	0.69	0.4	-2.6	2.9	i	/	4.5
Cc1csc(NC(=O)c2ccc(S(=O)(=O)N3CCN(C)CC3)cc2)n1	0.7	3.5	1.6	-3.5	i	/	1.2
O=C(COc1ccc(S(=O)(=O)N2CCCCC2)cc1)N1CCCCCC1	0.75	2.0	0.1	5.4	/	8%	/
CCn1cc(S(=O)(=O)NCCc2ccc(F)cc2)cn1	0.69	-1.2	-0.9	?	i	-7%	-8.6
Cc1ccc(S(=O)(=O)N2CCCC(C(=O)Nc3ccc(C(=O)O)cc3)C2)cc1Cl (centres undefined)	0.65	2.3	2.2	3.6	i	3%	-1.1
COc1cc(OC)cc(OC(=O)c2cccc(S(=O)(=O)N3CCN(C)CC3)c2)c1	0.62	0.7	5.4	0.8	i	5%	-24
O=C(O)C1CC(=O)N(c2ccc(Br)cc2)C1 (centres undefined)	0.7	2.8	-3.0	-2.1	/	-4%	/
CC1=C(C(=O)OCCNC(=O)c2cccnc2)C(c2cccc([N+](=O)[O-])c2)C(C(=O)OCCN(C)C)=C(C)N1 (centres undefined)	0.67	2.9	10	0.3	/	9%	/
Cc1cc(C)n(C(=O)CNC(=O)c2cccc(F)c2)n1	0.59	-0.3	3.6	4.8	i	/	-0.3
OC1CCCC1NCc1ccnc2cc(Cl)ccc12 (centres undefined)	0.71	7.3	2.0	/	i	0%	5.0
CCOC(=O)Cc1csc(NC(=O)COc2ccc(N(C)S(=O)(=O)c3ccc(C)cc3)cc2)n1	0.7	4.5	-2.2	-1.3	/	3%	/
CCOC(=O)N1CCN(C(=O)CSc2nc(=O)n3cccc(C)c3n2)CC1	0.68	-1.5	-1.9	3.0	i	1%	1.2
CC1CC(=O)c2cnc(NCc3ccco3)nc2C1 (centres undefined)	0.72	6.9	0.8	0.8	/	?	/
O=C(CN1CCN(CC(=O)Nc2cccc(F)c2)CC1)Nc1ccc(-c2ccccc2)cc1	0.64	1.6	-0.4	1.0	i	1%	0.5

(next part)
SMILES	Ecoli growth	UCH37 DUB inh	HNF4A DNA FP	RanGTP-Impb inh	FGF22 binding	Vif TR-FRET	MLL AF4-AF9 inh
CSc1cccc(CN2CCC(Oc3cccc(C(=O)N4CCCC4)c3)CC2)c1	0.64	2.8	-1.7	6.3	i	/	6.0
CCn1ncc(CN2CCN(Cc3ccc(OC)c(C)c3C)C(CCO)C2)c1C (centres undefined)	0.7	1.3	-4.3	1.7	i	10%	1.0
CCOC(=O)C1=C(C)N=c2s/c(=C\c3ccc(C(=O)O)cc3)c(=O)n2C1c1ccc(F)cc1 (centres undefined)	/	/	2.8	1.0	i	14%	7.3
Cc1ccc(C(=O)/C=C/c2ccco2)c(O)c1	0.66	4.0	-2.9	3.2	/	?	/
Cc1ccc(-c2c(C)nn3c(N4CCOCC4)cc(C)nc23)cc1	0.67	0.6	5.8	1.1	i	0%	-28
COc1ccc(Cn2c(C)c(C)c(C#N)c2NC(=O)Nc2ccc(Cl)cc2)cc1	0.78	3.5	2.2	0.9	/	-3%	/
CCCN(CC(=O)Nc1ccccc1C)C(=O)C1CCN(c2ncnc3sc(C)c(C)c23)CC1	0.68	5.3	2.0	-0.3	i	-1%	-14
CCOC(=O)C1C(=O)Nc2nc3ccccc3n2C1C(C)C (centres undefined)	0.71	5.4	-1.1	-0.3	/	?	/
N#CCCn1cc(C=C(C#N)C#N)c(-c2ccc(Cl)cc2)n1	0.66	-0.9	-1.5	-1.1	i	/	0.4
Cc1ccc(C=Nc2ccccc2C(=O)Nc2ccccc2)cc1	0.71	-160	2.3	1.1	/	27%	/
C=CCC1(C#N)C(=S)NC(C)=C(C(=O)OCC)C1c1ccccc1 (centres undefined)	0.7	6.9	3.0	-1.0	i	16%	1.9
CCOC(=O)c1ccc(NC(=O)c2ccc(OC(C)C)c(OC)c2)cc1	0.73	1.2	2.2	-2.3	i	4%	1.9

Part of the list above in order of heavy-atom count, low to high:
SMILES	Ecoli growth	UCH37 DUB inh	HNF4A DNA FP	RanGTP-Impb inh	FGF22 binding	Vif TR-FRET	MLL AF4-AF9 inh
Cc1ccc(-c2c(C)nn3c(N4CCOCC4)cc(C)nc23)cc1	0.67	0.6	5.8	1.1	i	0%	-28
CSc1cccc(CN2CCC(Oc3cccc(C(=O)N4CCCC4)c3)CC2)c1	0.64	2.8	-1.7	6.3	i	/	6.0
CCOC(=O)C1=C(C)N=c2s/c(=C\c3ccc(C(=O)O)cc3)c(=O)n2C1c1ccc(F)cc1 (centres undefined)	/	/	2.8	1.0	i	14%	7.3
CCCN(CC(=O)Nc1ccccc1C)C(=O)C1CCN(c2ncnc3sc(C)c(C)c23)CC1	0.68	5.3	2.0	-0.3	i	-1%	-14

Compound activity deposited in PubChem by several laboratories.
